# Source: PubChem (National Center for Advancing Translational Sciences (NCATS))
# ClpP mod – qHTS Assay for Activators of ClpP. ATP-dependent Clp protease proteolytic subunit (Bacillus subtilis (strain 168)), P80244. purified B. subtilis ClpP, FRET peptide cleavage, 20 min. Potency, µM (titrated, usually from 57.5 µM), for the others: at the highest dose activity change, negative = active. actives 1.9% (n = 340,000). AID 651965, 2013; active = well fitted falling curve with a large enough effect; inconclusive = small, poorly fitted or top-dose-only effect; inactive = no such curve, though single readings can be large or run the other way; note: potency is the fitted concentration of half-maximal effect; the source files actives as falling curves though it sought activators and does not explain the sign; nearly all actives have a fitted effect of over 65% in size; many hits overshoot -100%
# Target sequence (P80244 whole entry, looked up): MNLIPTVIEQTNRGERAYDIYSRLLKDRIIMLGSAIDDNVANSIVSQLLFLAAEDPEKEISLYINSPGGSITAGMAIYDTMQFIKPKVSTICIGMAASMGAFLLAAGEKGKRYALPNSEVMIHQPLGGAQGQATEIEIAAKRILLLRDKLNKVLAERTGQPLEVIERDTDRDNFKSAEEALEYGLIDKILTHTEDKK
#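 ClpP 10 microg/mL final, pH 8 Tris/KCl buffer with BSA, glycerol, Tween-20; compound pinned in; FRET-FV substrate; RT 20 min; Ex320/Em430; ΔFRET vs ADEP 5.8 microM, DMSO, no enzyme.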
# gsp agonist – activates gsp, the McCune-Albright syndrome mutation; AID 624287; actives 0.13% (n = 340,000); gsp mutant cells, cAMP HTRF, 30 min; control for the full effect not named in the record; Potency, µM (highest dose often 76.9 µM), without a hit: top-dose activation (cAMP increase), most hits filed as activators; active = well fitted activation curve with a large enough effect; inconclusive = small, poorly fitted or top-dose-only effect, or another doubt; inactive = no such curve, though single readings can be large or run the other way; cell line not stated here;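 note: phosphodiesterase inhibitor Ro 20-1724 added with compounds to block cAMP breakdown; potency is the fitted concentration of half-maximal effect; nearly all actives have a fitted effect of over 60% in size; about a fifth of the inactives were tested at one dose only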
#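 Cells stably selected in G418 were plated at 2000/well, grown 16-24 hr, then given compounds in DMSO with the PDE inhibitor […] (300 uM solution added) for 30 min at 37C; cAMP was read by HTRF.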
# gsp antag – antagonizes gsp, the McCune-Albright syndrome mutation | Potency, µM (series often up to 76.9 µM), for inactives: top-dose activity change, negative = inhibition, most hits filed as inhibitors | AID 624288 | actives 0.4% (n = 340,000) | gsp-mutant cells, cAMP HTRF, 30 min; control for the full effect not named in the record; active = falling curve of any shape with a large fitted effect; inconclusive = falling curve, mostly with a smaller effect; inactive = flat or rising curve; cell line not stated here;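 note: intracellular cAMP measured with PDE inhibitor Ro 20-1724 present during compound exposure; potency is the fitted concentration of half-maximal effect; % is set by controls: 0 for no effect and ±100 for the full control effect; nearly all actives have a fitted effect of over 65% in size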
#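 Cells, 2000/well, grown 16–24 h in DMEM 10% FBS with 0.5 mg/ml G418, then compounds plus […] (300 uM addition stock), 30 min at 37C. cAMP read by HTRF (cAMP-d2 and anti-cAMP antibody-K in lysis buffer) after 30 min RT.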
# Menin-MLL FL inh – menin-MLL binding inhibition, fluorescein peptide | Fluorescence polarization, fluorescein-MLL peptide displacement from menin | FP activity change, % at 61.4 µM | 290,000 tested, under 10 active; inconclusive = falling polarisation curve, or a change in total fluorescence; inactive = total fluorescence flat and polarisation flat or rising; no compound was filed as active; the % refers to the polarisation; negative = inhibition;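 note: % of control where 0% means no effect; inhibitors lower the polarisation; unlabelled MLL peptide was the positive control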
# TRPML1 ag – agonists of human TRPML1 channel | Q9GZU1 | TRPML1-expressing cells, Ca2+ dye fluorescence, FDSS; host cell line not named in the record; reference of the full effect not given here | activation, % (no concentration beside the values) | actives 0.12% (n = 410,000); in the data active = activation above about 50%; inconclusive = about 30% to 50%; inactive = below about 30%; note: 0% is about no effect; the text of the record puts the active cut at 80%
# Target sequence (Q9GZU1 whole entry, looked up): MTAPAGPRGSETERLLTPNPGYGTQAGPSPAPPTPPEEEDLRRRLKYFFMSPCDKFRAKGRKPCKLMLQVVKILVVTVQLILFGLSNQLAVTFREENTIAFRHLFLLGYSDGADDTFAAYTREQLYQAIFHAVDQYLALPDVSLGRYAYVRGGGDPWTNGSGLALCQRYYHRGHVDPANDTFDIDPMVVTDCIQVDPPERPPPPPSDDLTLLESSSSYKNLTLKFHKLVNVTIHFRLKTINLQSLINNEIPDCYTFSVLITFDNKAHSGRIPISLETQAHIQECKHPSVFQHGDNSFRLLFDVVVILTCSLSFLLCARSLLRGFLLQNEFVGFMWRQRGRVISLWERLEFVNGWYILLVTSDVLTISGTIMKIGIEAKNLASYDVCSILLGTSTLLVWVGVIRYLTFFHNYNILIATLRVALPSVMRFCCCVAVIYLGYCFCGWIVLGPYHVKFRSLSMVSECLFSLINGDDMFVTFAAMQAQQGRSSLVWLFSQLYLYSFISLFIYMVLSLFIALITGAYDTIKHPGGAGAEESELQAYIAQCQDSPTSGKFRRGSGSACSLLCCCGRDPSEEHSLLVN
#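 TRPML1-DL cells, Tet-induced overnight (~16 h, 37 degrees C), loaded 45-90 min at room temperature with Ca8 no-wash calcium dye plus quencher. FDSS fluorescence: 10 s baseline, compound pin-transfer, 110 s agonist read, then EC80 54-4 (4uM final) and 110 s antagonist read.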
# TRPML1 blocker – human mucolipin-1 channel inhibition; Q9GZU1; TRPML1-inducible cells, Ca2+ dye fluorescence, FDSS; active compounds read low; inhibition of EC80 agonist-evoked calcium signal; activity change, negative = inhibition, % (test concentration not listed); actives 0.02% (n = 390,000); in the data active means activity change below about -50%; inconclusive means about -30% to -50%; inactive means above about -30%;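 note: stimulus is agonist 54-4 at its EC80 concentration; % is set by controls: 0 for no effect and ±100 for the full control effect; compound concentration not given in the record; the text of the record puts the active cut at -80%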
#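 TRPML1-DL cells, Tet-induced overnight (~16 h, 37 °C) at 1,500 cells/well, were loaded with Ca8 no-wash dye plus quencher for 45-90 min at room temperature. Compounds were pinned during FDSS kinetic reading; agonist 54-4 at EC80 (4 uM final) then added.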
# Starred values were filed as active, the others as inactive; ? = inconclusive; . = not tested or not shown; [ ] = dose if it differs, or a comment.
SMILES,ClpP mod,gsp agonist,gsp antag,Menin-MLL FL inh,TRPML1 ag,TRPML1 blocker
O=C(CN1CCCc2ccccc21)Nc1cccc(S(=O)(=O)N2CCCC2)c1,0.2%,-13.1%,.,.,-0.1,-1.3
Cc1cccc(Oc2nc3c(c(=O)n(C)c(=O)n3C)n2Cc2ccccc2)c1C,2.1%,.,.,.,-0.9,4.3
O=C1c2cccc3c2N(CCC3)C(=O)C1(F)c1ccccc1 (centres undefined),.,-13.2%[15.4 µM],-16.0%,.,1.5,4.2
CC(CN)(NS(=O)(=O)c1ccccc1)c1ccccc1 (centres undefined),-1.2%,-10.6%[15.4 µM],3.2%,-2.2,0.0,21.8
COc1ccccc1CNC(=S)Nc1ccc(F)cc1,.,-28.3%,3.7%,-0.9,-0.6,-5.0
COc1ccccc1C(=O)Nc1ccc2c(c1)nc1n2CCN(Cc2ccccc2)C1,-9.1%,0.8%[15.4 µM],-15.4%,11.6,-1.1,-24.3
Cc1nnc(SCC(=O)Nc2nsc(-c3ccc(C(C)(C)C)cc3)n2)s1,-14.5%,-35.0%,-21.0%,-1.9,2.3,-19.2
O=C(c1ccc(COc2ccccc2Cl)o1)N1CCOCC1,.,5.2%,-2.7%,-5.0,0.4,3.3
COc1ccc(CN2CCNC(=O)C2CC(=O)N(C)CCC2CCOCC2)c(OC)c1 (centres undefined),2.6%,?,13.1%,0.1,0.3,-14.8
Cc1cccc(C)c1NC(=O)CN,.,-0.2%[15.4 µM],11.5%,0.1,-0.9,-4.5
CCn1cc(C(=O)N2CCc3ccccc32)c(=O)c2cc(S(=O)(=O)N3CCCCCC3)ccc21,-0.8%,?,3.5%,3.2,1.3,12.3
O=C(Nc1ccc(Cl)cc1Cl)C1CCC(=O)N1Cc1ccccc1Cl (centres undefined),-0.7%,-12.1%,2.9%[15.4 µM],1.5,0.2,6.6
CCCCNC(=O)C(CC)(ONc1ccccc1C(F)(F)F)c1ccccc1 (centres undefined),0.3%,-0.7%,-4.4%,.,-1.1,3.9
CN(CC(=O)Nc1ccccc1Br)C(=O)Cn1[nH]c(=O)c2ccccc2c1=O,-19.3%,1.3%,7.6%,.,-0.1,-11.8
COc1ccc(S(=O)(=O)Nc2ccc(Oc3ncccn3)c(Cl)c2)cc1,0.4%,22.5%,-14.8%,-1.4,-1.2,5.5
Cc1ccc(C)c(NC(=O)C(OC(=O)c2ccc(CO)cc2)c2ccccc2)c1 (centres undefined),1.0%,-30.1%[15.4 µM],-19.7%,.,1.7,-1.7
Cc1ccc(-n2c3c(cc(-c4nc(-c5ccc(Cl)cc5)cs4)c2=O)C(=O)CC(C)(C)C3)cc1C,-11.5%,.,.,.,0.7,27.7
S=C(Nc1ccccc1)N1CCN(C(=S)c2ccccc2)CC1,.,15.4%[15.4 µM],-7.7%,-2.5,0.6,28.6
O=C(NCc1ccccc1)Nc1cccn(Cc2ccc(F)cc2)c1=O,31.6µM*,-6.6%,18.3%,1.8,1.3,-1.4
CC(=O)N(c1ccccc1)C1CC(C)N(C(=O)c2ccccc2)c2ccccc21 (centres undefined),?,15.6%[15.4 µM],-17.2%,0.4,0.4,23.2
O=C(CCCCO)c1ccc(O)c(Cl)c1,-5.9%,-5.4%,4.8%,.,-0.2,-5.3
COc1ccc(S(=O)Cc2ccc(C(=O)NC3CC3)o2)cc1 (centres undefined),0.0%,-21.3%,4.3%,-5.0,0.0,-4.5
O=C(CN1C(=O)NC2(CCCCCC2)C1=O)c1ccc(OC(F)F)cc1OC(F)F,-1.1%,14.3%[15.4 µM],-3.0%,.,-0.4,-19.5
CCOc1cc(CNC(=O)CSc2n[nH]c(-c3ccccc3)n2)cc(OCC)c1OCC,-0.9%,.,.,.,2.7,-11.6
C[C@H]1CN([C@@H](C)CO)C(=O)c2cc(Br)cnc2O[C@H]1CN(C)C(=O)c1ccccn1,-0.9%,?,.,.,-0.2,1.3
CCCOc1cccc(C2c3c(oc4ccccc4c3=O)C(=O)N2c2nncs2)c1 (centres undefined),-0.2%,.,.,.,3.6,-2.3
COc1cc2c(cc1OC)C(c1ccco1)CC(=O)N2 (centres undefined),-5.1%,-0.8%,8.1%,2.8,-0.1,-3.6
CSc1ccc(CCNC(=O)Cn2c(C)c3cnn(-c4ccccc4)c(=O)c3c2C)cc1,-3.8%,.,.,.,-0.5,-0.4
CC(=O)c1c(C)nc(C)nc1NC(=O)Cc1ccccc1,-0.3%,1.9%,10.6%,-0.9,-0.4,-2.9
CC(C)(C)NC(=O)C(=O)NC(=O)c1c(F)cccc1Cl,.,-1.6%,10.5%,1.3,0.1,21.8
CCn1c(SCC(=O)OC2CCCCC2)nc2ccccc2c1=O,2.3%,-50.6%[inhibitor],-28.1%,3.9,1.7,2.8
Cc1onc(-c2c(F)cccc2Cl)c1C(=O)N[C@@H]1C(=O)N2C(C(=O)O)C(C)(C)S[C@H]12 (some centres undefined),-0.1%,.,-2.7%,.,-0.7,3.8
CSc1nc2cc3c(cc2n1C(=O)c1ccc(C)cc1)OCCO3,-10.5%,33.5%,2.6%,-5.8,1.1,13.6
CCCOC(=O)CSC1=C(C#N)C(c2ccccc2OCC)C(C#N)C(=O)N1 (centres undefined),3.7%,-10.9%,-25.8%,0.0,1.5,15.3
COc1cc(O)ccc1-c1nc2cc(C)ccn2c1Nc1ccccc1C,4.1%,.,.,.,-0.8,12.5
Cc1ccc2oc(C(=O)Nc3sc4c(c3C(=O)NCc3ccccc3)CCCC4)cc(=O)c2c1,2.7%,.,.,.,-0.6,2.2
COc1cccc(CNC(=O)c2ccc(-c3nc(CSc4ccccc4)c(C)o3)cc2)c1,-13.8%,.,.,.,1.1,6.1
Cn1c(=O)n(CCCOc2ccc(Cl)cc2)c2ccccc21,1.4%,-13.7%,-4.2%,2.0,0.1,13.4
O=C1CCCCC1c1cccc2ccccc12 (centres undefined),-1.2%,7.9%[15.4 µM],2.6%,.,-0.8,-1.5
CCC(C)(C)n1nnnc1C(c1ccc(O)c(OC)c1)N1CCN(c2nc3ccccc3s2)CC1 (centres undefined),1.5%,-29.2%,-2.8%[15.4 µM],-1.7,1.9,-8.8
CCOc1ccccc1OCCC(=O)OCC(=O)Nc1c(C)cc(C)cc1C,-1.2%,-48.2%[inhibitor],8.2%,.,0.3,21.5
CC(c1ccon1)N(C)Cc1cn(C)nc1-c1ccc2c(c1)OCCO2 (centres undefined),.,7.1%[15.4 µM],-1.5%,5.8,0.4,-11.8
CCOC(=O)c1ccc(NC(=S)NCC(O)c2ccccc2)cc1 (centres undefined),2.6%,12.2%,3.3%,-0.5,0.5,38.0
CC(C)C(NC(=O)Cc1ccccc1[N+](=O)[O-])C(C)C,0.7%,-12.3%,-8.9%,3.5,-0.4,-6.7
CCCOc1cccc(C(=O)Nc2cccnc2)c1,-3.2%,?,-17.4%,2.0,0.3,0.7
COC(c1ccccc1)c1nnc(CCC(=O)NC2CCCCC2)o1 (centres undefined),.,8.5%,12.1%,0.9,0.5,8.6
CCOC(=O)C1CCN(Cc2cccc(OCc3ccccc3)c2)CC1,0.8%,10.8%,0.6%,3.7,-1.5,21.5
Cc1nc2cc(-n3ccc(=O)cc3)ccc2n1-c1ccccc1,-3.1%,-2.6%,2.4%,8.7,0.1,30.7
COCON1C(=O)CN(C(C)=O)C1c1ccc(Cl)cc1Cl (centres undefined),-0.2%,9.3%,4.2%,17.0,-0.7,-9.2
CCOc1ccc(N2C(=O)CC(n3ccc(C)n3)C2=O)cc1 (centres undefined),-0.3%,-10.6%,8.5%,-2.5,0.0,2.9
# Following part
SMILES,ClpP mod,gsp agonist,gsp antag,Menin-MLL FL inh,TRPML1 ag,TRPML1 blocker
O=C(Nc1cc(Cl)ccc1Cl)C1CCCO1 (centres undefined),0.2%,-1.6%[15.4 µM],9.7%,0.6,-0.1,-0.8
O=C(NCC(c1ccco1)N1CCCC1)c1sc2ccccc2c1Cl (centres undefined),-1.4%,-22.6%,0.5%,.,1.2,2.3
O=C(CSCc1cccc(Cl)c1)N1CCN(Cc2ccc3c(c2)OCO3)CC1,1.1%,22.9%,-19.6%,1.2,-0.3,1.6
O=C(NN1C(=O)c2ccccc2NC1c1ccco1)c1ccc([N+](=O)[O-])cc1 (centres undefined),2.2%,-36.7%[inhibitor],1.1%,-0.1,1.2,-2.7
Cc1ccc(C(=O)NC(=S)Nc2ccc(N3CCOCC3)cc2)cc1C,.,-3.1%[15.4 µM],-22.5%,-1.3,-0.7,19.7
COc1ccc(C(CNC(=O)Cc2ccc(-c3ccccc3)cc2)N(C)C)cc1 (centres undefined),.,-1.9%[15.4 µM],10.1%,-1.3,0.6,17.6
CC(C)Cn1c(SCC(=O)NCc2ccco2)nnc1-c1ccncc1,.,-10.2%[15.4 µM],.,-0.2,0.7,-3.7
COc1ccc(/C=C(\NC(=O)c2cccs2)C(=O)Nc2ccccc2C)cc1OC,-16.2%,-9.7%[15.4 µM],-0.7%,4.1,0.3,3.9
CCc1ccccc1NC(=O)CNC(=O)CCNC(=O)Nc1ccccc1,-1.4%,8.7%,7.8%,.,-0.8,-3.8
CN(C(=O)CSc1ncnc2sc3c(c12)CCC3)C1CCS(=O)(=O)C1 (centres undefined),-6.0%,?,-7.2%,.,-0.3,-10.6
O=C(c1ccc(S(=O)(=O)N2CCOCC2)cc1)N1CCOCC1,.,-37.7%[inhibitor],7.0%,1.8,-0.8,1.7
O=C1CC(c2ccco2)Sc2ccccc2N1 (centres undefined),-0.8%,7.6%,8.9%,-2.5,1.2,3.1
CC(C)n1nnnc1SCC(=O)c1ccc2c(c1)OCCO2,0.8%,16.3%,-2.6%,2.7,-1.1,12.7
Cc1cccc(C)c1NC(=O)C(NC=O)c1ccc(N(C)C)cc1 (centres undefined),26.0%,19.2%,-9.8%,0.3,1.1,-12.1
CCCCCOc1ccc(NC(=O)c2cc(SC)ccc2Cl)cc1,27.6%,-5.9%[15.4 µM],8.6%,1.1,-0.2,-2.1
O=C(c1cc([N+](=O)[O-])cc([N+](=O)[O-])c1)N1CCN(Cc2ccc3c(c2)OCO3)CC1,-4.1%,13.0%[15.4 µM],0.2%,-5.7,0.5,12.5
CC(C)N(Cc1ccccc1)C(=O)CN1C(=O)NC2(CCOc3ccccc32)C1=O (centres undefined),-3.5%,12.7%,2.1%,.,-0.4,-28.5
Cc1ccc(/C=N\NC(=O)CC(=O)NCCc2ccccc2)cc1,.,-1.6%,-5.5%,-0.5,-0.1,-10.1
Cc1ccc(CNC(=O)CN(c2cc(C)cc(C)c2)S(=O)(=O)c2c(C)noc2C)cc1,2.0%,.,.,.,0.3,-15.6

# No enrichment for hits. About 2.1% of those tested had a hit in this group.
